A647 autofl: compound fluoresces in the A647 spectral region; Compound fluorescence, A647 channel (570/671 nm), Tris buffer; max dye-equivalent concentration, M; 59,000 tested, under 10 active; AID 592; active means above 1 µM dye equivalent; inconclusive means 0.1 to 1 µM; inactive means 0.1 µM or less;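 also: values scaled relative to a standard on each plate; highest value over a series up to 38 µM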
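Compounds pinned into 100 mM Tris pH 8.0, 15 min at room temperature, then read with 570 nm excitation/671 nm emission filters. Fluorescence normalized to an on-plate six-point Alexa 647 standard curve, giving dye-equivalent concentration per compound concentration.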
AID923: qHTS Assay for Allosteric/Competitive Inhibitors of Caspase-1: Spectroscopic Profiling in AFC Spectral Region. compound fluorescence, AFC spectral region (405/520 nm); almost no hit is shown here. Potency, µM (series often up to 57.5 µM), without a hit: at the top dose fluorescence increase, most hits filed as activators. 1.1% of 75,000 active. AID 923, 2007; active = well fitted activation curve with a large enough effect; inconclusive = small, poorly fitted or top-dose-only effect;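 also: potency is read from the fitted curve at half-maximal effect; 0% is about no effect; scaled to a free AFC standard on each plate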
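Titrations up to 57 uM read every 20 sec for 3 min (405/520 nm) with 50 nM caspase 1 and 5 uM Ac-WEHD-AFC, pH 7.5 HEPES buffer. Fluorescence-vs-time intercept gave baseline, scaled against on-plate AFC standard.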
TSHR ag: agonists of human thyroid stimulating hormone receptor. P16473. HEK293-CNG-TSHR cells (CNG channel as cAMP sensor), membrane potential dye, cAMP. Potency, µM (series often up to 57.1 µM), for the others: top-dose activation, usual class: activators. 0.48% of 73,000 active; active = well fitted activation curve of enough size with the parental cells flat; inconclusive = any curve in the parental cells; inactive = parental cells flat and receptor cells flat or falling; also: potency is read from the fitted curve at half-maximal effect; % of control where 0% means no effect; weak receptor curves with flat parental cells got no call and are not listed
Target sequence (P16473 whole entry, looked up): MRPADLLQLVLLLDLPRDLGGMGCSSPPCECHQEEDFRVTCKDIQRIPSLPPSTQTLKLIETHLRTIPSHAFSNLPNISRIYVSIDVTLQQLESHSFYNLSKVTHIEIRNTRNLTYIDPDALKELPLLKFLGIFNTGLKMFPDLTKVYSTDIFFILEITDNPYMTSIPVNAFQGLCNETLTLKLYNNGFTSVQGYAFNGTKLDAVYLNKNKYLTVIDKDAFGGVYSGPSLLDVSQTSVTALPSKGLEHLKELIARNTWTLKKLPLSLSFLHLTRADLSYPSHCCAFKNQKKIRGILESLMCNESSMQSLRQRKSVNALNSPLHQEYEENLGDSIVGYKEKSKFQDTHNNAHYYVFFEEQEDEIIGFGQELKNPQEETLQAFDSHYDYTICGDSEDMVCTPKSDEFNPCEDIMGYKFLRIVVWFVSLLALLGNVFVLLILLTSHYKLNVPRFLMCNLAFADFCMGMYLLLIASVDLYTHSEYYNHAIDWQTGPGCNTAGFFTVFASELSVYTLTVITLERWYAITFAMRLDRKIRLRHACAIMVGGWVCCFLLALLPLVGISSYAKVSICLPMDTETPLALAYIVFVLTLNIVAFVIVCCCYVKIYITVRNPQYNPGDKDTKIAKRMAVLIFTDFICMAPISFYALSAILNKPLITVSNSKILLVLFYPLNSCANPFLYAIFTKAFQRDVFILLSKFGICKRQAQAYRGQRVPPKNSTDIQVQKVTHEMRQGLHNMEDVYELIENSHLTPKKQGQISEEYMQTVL
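HEK 293 cells stably expressing TSHR and a modified CNG channel, with CNG-only parental cells as counterscreen, were preloaded 60 min at room temperature with membrane potential dye containing 100 uM RO 20-1724. Compound exposure was 30 min, and depolarization was read as fluorescence at 590 nm.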
Resorufin autofl: compounds fluorescent in resorufin spectral region; Compound fluorescence, resorufin region 547/598 nm, buffer; active compounds read high; max dye-equivalent concentration, M; 0.04% of 59,000 active; active = above 10 nM dye equivalent; inconclusive = 1 to 10 nM; inactive = 1 nM or less; a few of its hits are not listed in these tables; also: highest value over a series up to 38 µM
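Tris 100 mM pH 8.0; compound added, 15 min RT; CCD imager read, ex 547 nm/em 598 nm; signal normalized to resorufin standard curve (six concentrations per plate) as dye-equivalent concentration.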
A488 autofl: A488 region autofluorescence; 0.1% of 59,000 active; max dye equivalency, M; compound autofluorescence, A488 spectral region, dye equivalency; active compounds read high; active = above 10 nM dye equivalent; inconclusive = 1 to 10 nM; inactive = 1 nM or less; about half of its hits are not listed in these tables;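 also: highest value over a series up to 38 µM; compound alone in buffer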
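Autofluorescence read at ex 480/em 540 nm after 15 min RT in 100 mM Tris pH 8.0; compound signal normalized to A488 standard series on each plate, reported as dye-equivalent concentration at each test concentration.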
An asterisk follows results filed as active; i = inactive; ? = inconclusive; . = not tested or not shown; [ ] = another dose, or the depositor's remark. This is a subset; the hit share may differ from the screen's.

entry	Molecule	A647 autofl	AID923	TSHR ag
1	COc1ccc(N(CC(=O)Nc2ccccc2SC)S(C)(=O)=O)cc1OC	1e-09	-0.1%	-4%
2	COC(=O)c1ccccc1NC(=O)c1ccccc1SC	1e-09	1.1%	?
3	CCOc1cc2[nH]c(=O)n(CC3CCC(C(=O)NCCC(C)C)CC3)c(=O)c2cc1OCC (stereo not drawn)	8.4e-09	1.7%	.
4	COc1ccc(NC(=O)C2CCCN2S(=O)(=O)c2ccc(F)cc2)cc1 (stereo not drawn)	.	0.2%	-8%
5	CCOC(=O)N1CCC(NC(=O)Cn2cc3c(n2)CCC(C)C3)CC1 (stereo not drawn)	6.6e-09	-0.2%	-1%
6	Cc1cc(C)c2cc(C(c3nnnn3CC3CCCO3)N3CCN4CCCC4C3)c(=O)[nH]c2c1 (stereo not drawn)	1e-09	4.9%	0%
7	O=C(CCC(=O)N(CC(=O)NC1CCCC1)Cc1ccc2c(c1)OCO2)Nc1ccccn1	1.9e-08	-0.1%	?
8	CCOC(=O)c1ccc(NS(=O)(=O)c2cnc[nH]2)cc1	1e-09	-1.6%	1%

entry	Resorufin autofl	A488 autofl
1	i	i
2	i	i
3	i	i
4	.	.
5	i	i
6	i	i
7	i	i
8	i	i

Continuation:
entry	Molecule	A647 autofl	AID923	TSHR ag
9	CCCN(CCO)Cc1cccc(Oc2ccccc2)c1	.	0.0%	?
10	CCCCCCn1c2c(c(=N)c3c1CCC3)CCC2	3.1e-08	0.2%	20%
11	Cc1ccccc1Nc1nc(N)nc(COC(=O)C(NC(=O)c2ccco2)C(C)C)n1 (stereo not drawn)	1.5e-08	-1.0%	-3%[11.4 µM]
12	C[C@@H](c1ccccc1)N1C(=O)[C@H]2[C@H]3[C@H](O)[C@H](O)C/C(=N/OC[C@@H](O)COCc4ccco4)[C@H]3CC[C@@H]2C1=O	.	-0.1%[11.5 µM]	0%[11.4 µM]
13	CC(C)C(NC(=O)OCc1ccccc1)C(=O)NCC(=O)OC(C)(C)C (stereo not drawn)	.	-1.1%	11%
14	CCC(=O)NCCSc1c[nH]c2ccccc12	3.1e-08	0.8%	-9%
15	CC(C(=O)O)N1C(=O)CSC1=S (stereo not drawn)	1.3e-08	0.8%	1%
16	COc1ccc(N2CCCn3c2nc2c3c(=O)n(CCc3ccccc3)c(=O)n2C)cc1	7.7e-09	-1.2%	-4%

entry	Resorufin autofl	A488 autofl
9	.	.
10	i	i
11	i	i
12	.	.
13	.	.
14	i	i
15	i	i
16	i	i

(more compounds)
entry	Molecule	A647 autofl	AID923	TSHR ag
17	COc1ccccc1-c1nnc(NC(=O)C(C)SC2=NCCS2)s1 (stereo not drawn)	.	6.9%	?
18	O=C1C[C@@H](O)[C@@H](O)[C@@H]2[C@H]3C(=O)N(c4ccc(F)cc4F)C(=O)[C@@H]3CC[C@H]12	.	-0.9%[11.5 µM]	-2%[11.4 µM]
19	COc1ccc(-c2nnc(COc3ccc4ccccc4c3)o2)cc1OC	.	1.6%	?
20	CCCCSc1nc(C)c(C(C)=O)cc1C#N	.	2.1%	?
21	Cc1onc(-c2c(F)cccc2Cl)c1C(=O)NCC1COc2ccccc2O1 (stereo not drawn)	.	2.6%	19%
22	Cc1cc(C)nc(N2CCCC(C(=O)NCCC3=CCCCC3)C2)n1 (stereo not drawn)	5.3e-08	-2.1%	3%
23	CCC1=C(C)CN(C(=O)NCCc2ccc(S(=O)(=O)NC(=O)NC3CCC(C)CC3)cc2)C1=O (stereo not drawn)	5.6e-09	-0.8%[25.7 µM]	-6%[25.6 µM]
24	CCc1c(C(=O)Nc2nnc(C3CC3)s2)csc1C	1e-09	-1.8%	-3%

entry	Resorufin autofl	A488 autofl
17	.	.
18	.	.
19	.	.
20	.	.
21	.	.
22	i	i
23	i	i
24	i	i

The results go on:
entry	Molecule	A647 autofl	AID923	TSHR ag
25	COc1cccc(-c2nc(CS(=O)(=O)CC(=O)NCc3ccccc3)c(C)o2)c1	.	-1.4%	?
26	Cc1ccsc1C1C(C(=O)O)c2ccccc2C(=O)N1C (stereo not drawn)	1.4e-08	0.4%	4%
27	C#CCSc1n[nH]c(-c2ccco2)n1	8.9e-09	4.7%[11.5 µM]	-8%[11.4 µM]
28	CCOc1ccc(C2CC(=O)NC3=C2C(=O)CCC3)cc1 (stereo not drawn)	4.9e-08	-0.9%	-1%
29	COc1ccc(-n2c(SCC(=O)Nc3nccs3)nc3sc4c(c3c2=O)CCN(C)C4)cc1	8e-09	-0.5%	18%
30	Cc1ccc2nc(-c3cccc(-c4nc5ccc(C)cc5o4)n3)oc2c1	3.7e-08	0.9%	4%[11.4 µM]
31	Cc1ccc(CCNS(=O)(=O)c2cnc[nH]2)cc1	1e-09	0.3%	-5%
32	O=C(O)COc1ccccc1Cc1ccccc1	1.6e-08	-1.2%	6%

entry	Resorufin autofl	A488 autofl
25	.	.
26	i	i
27	i	i
28	i	i
29	i	i
30	i	i
31	i	i
32	i	i

Copied from above, compounds 25 to 28
entry	Molecule	A647 autofl	AID923	TSHR ag
25	COc1cccc(-c2nc(CS(=O)(=O)CC(=O)NCc3ccccc3)c(C)o2)c1	.	-1.4%	?
26	Cc1ccsc1C1C(C(=O)O)c2ccccc2C(=O)N1C (stereo not drawn)	1.4e-08	0.4%	4%
27	C#CCSc1n[nH]c(-c2ccco2)n1	8.9e-09	4.7%[11.5 µM]	-8%[11.4 µM]
28	CCOc1ccc(C2CC(=O)NC3=C2C(=O)CCC3)cc1 (stereo not drawn)	4.9e-08	-0.9%	-1%

entry	Resorufin autofl	A488 autofl
25	.	.
26	i	i
27	i	i
28	i	i

(list continues)
entry	Molecule	A647 autofl	AID923	TSHR ag
33	COc1ccc(NC(=O)CCCCn2c(=O)[nH]c3ccccc3c2=O)cc1	1e-09	1.3%	-2%
34	N#Cc1cn(CC(=O)O)c2ccccc12	2.5e-09	-0.8%	8%
35	O=C(O)CCNS(=O)(=O)c1ccc(Oc2ccccc2)cc1	1e-09	0.0%	4%
36	CC1CCc2nc(NC(=O)c3cc(C(C)(C)C)nn3C)sc2C1 (stereo not drawn)	1.8e-08	-0.5%	7%
37	CC1CC(C)CN(CCCNC(=O)Cc2c(C(=O)O)[nH]c3ccccc23)C1 (stereo not drawn)	1e-09	0.1%	8%
38	CCOc1ccccc1N1CCN(Cc2ccc(Br)s2)CC1	.	0.7%	17%
39	O=C1CCC[C@H]2OC12[C@@H](O)CCc1ccccc1 (stereo partly drawn)	.	-1.1%[11.5 µM]	-6%[11.4 µM]
40	CC(C)(C)n1nnnc1C(c1cccc(C(F)(F)F)c1)N1CCOCC1 (stereo not drawn)	2.1e-09	1.1%	10%

entry	Resorufin autofl	A488 autofl
33	i	i
34	i	i
35	i	i
36	i	i
37	i	i
38	.	.
39	.	.
40	i	i

The list continues.
entry	Molecule	A647 autofl	AID923	TSHR ag
41	COc1ccc(C)cc1S(=O)(=O)N1CCC(C(=O)N2CCOCC2)CC1	4e-09	-1.0%	-6%
42	CCc1c(O)nc(SCC(=O)Nc2ccccc2C)[nH]c1=O	1.8e-08	-0.4%	2%
43	CCCCNC(=O)NS(=O)(=O)c1ccc(NS(=O)(=O)c2ccccc2)cc1	.	-1.0%	2%
44	COc1cc(S(=O)(=O)N2CCOCC2)ccc1NC(=O)CSc1nnc(N)s1	1e-09	-0.7%	-3%
45	COCCN1Cc2cccc(C(=O)NCc3ccc4c(c3)OCO4)c2C1=O	3.6e-08	-0.5%	?
46	Cn1c(=O)cc(NCc2ccccc2)[nH]c1=O	2.9e-08	.	.
47	CN(c1cc(=O)n2ccccc2n1)C1CCCCC1	1e-08	-0.1%	7%
48	CNc1oc(C)nc1S(=O)(=O)c1ccc(C)cc1	2.4e-09	0.6%	-1%

entry	Resorufin autofl	A488 autofl
41	i	i
42	i	i
43	.	.
44	i	i
45	i	i
46	i	i
47	i	i
48	i	i

(cont.)
entry	Molecule	A647 autofl	AID923	TSHR ag
49	Cc1cc(NC(=O)c2ccccc2Oc2ccccc2)no1	1e-09	1.0%	?
50	O=C1c2ccccc2C(Nc2ccc(S(=O)(=O)N3CCCCCC3)cc2)N1Cc1ccco1 (stereo not drawn)	.	-1.8%	?
51	Cn1cccc1-c1nc2ccc(NC(=O)c3ccco3)cc2[nH]1	3.3e-09	0.5%	-5%
52	COCCNC(=O)[C@H]1C[C@@H]1[C@H](NP(=O)(c1ccccc1)c1ccccc1)c1ccccc1	.	-0.8%	4%
53	COc1ccccc1CN1CCC2(CC1)CCN(S(=O)(=O)c1ccccc1)CC2	1e-09	0.5%	2%
54	CCCn1c(C)nc2c(c1=O)c1nc3ccccc3nc1n2-c1ccc2c(c1)OCCO2	1.9e-08	4.2%	9%
55	Cc1nc(NCc2ccco2)nc2c1C(=O)CC(C)C2 (stereo not drawn)	1e-09	-0.1%	3%
56	O=C(Nc1ccc(Cl)cc1F)C1CCN(S(=O)(=O)c2cccnc2)CC1	9.3e-09	-1.1%	-4%

entry	Resorufin autofl	A488 autofl
49	i	i
50	.	.
51	i	i
52	.	.
53	i	i
54	i	i
55	i	i
56	i	i

Continuation.
entry	Molecule	A647 autofl	AID923	TSHR ag
57	N#CC1=C(SCC(=O)Nc2cccc3cccnc23)NC(=O)C(C#N)C12CCCCC2 (stereo not drawn)	1e-09	-2.3%	27%
58	Cc1cnc(CNc2cc(-c3cccc(C#N)c3)ncn2)cn1	3.1e-08	-0.8%	-1%
59	CC(=O)Nc1ccc(CN2CCN(c3cccc(C(F)(F)F)c3)CC2)cc1	.	1.8%	-2%
60	Cc1ccc2c(CC(=O)Nc3sccc3C(N)=O)coc2c1	9.1e-09	-2.1%	-5%
61	CCCNC(=O)c1ccc(CNc2c(N3CCC(C(=O)OCC)CC3)c(=O)c2=O)cc1	1.6e-09	2.0%	-3%
62	Cc1ccc(-c2ccc(CCC(=O)O)n2NC(=O)c2cccs2)cc1	1e-09	1.6%	19%
63	CCCCCCNC(=O)CCNC(=O)c1cc(OC)c(OC)c(OC)c1	1e-09	-1.4%	4%
64	Cn1nnnc1SCC(=O)c1cccs1	2.2e-08	-0.1%	18%

entry	Resorufin autofl	A488 autofl
57	i	i
58	i	i
59	.	.
60	i	i
61	i	i
62	i	i
63	i	i
64	i	i

(more compounds)
entry	Molecule	A647 autofl	AID923	TSHR ag
65	CN1CCCN(CC(O)COCc2cccs2)CC1 (stereo not drawn)	1e-09	-1.9%	1%
66	COC(=O)C1=C(N)Oc2cc(C)[nH]c(=O)c2C1c1cc(OC)c(OC)c(OC)c1 (stereo not drawn)	2.5e-08	0.8%	-3%
67	COCCN1CCn2c(nc3cc(NC(=O)NC4CCCCC4)ccc32)C1	2.3e-08	16%	?
68	CCN(C1CCS(=O)(=O)C1)S(=O)(=O)c1cccs1 (stereo not drawn)	1e-09	-2.1%	-5%
69	CCOC(=O)CN1CC23C=CC(O2)C(C(=O)Nc2ccc(OCC)cc2)C3C1=O (stereo not drawn)	.	-0.4%	-2%
70	O=C(COc1ccc(Cl)cc1)NCc1nnc(SCC(=O)NCCc2ccccc2)o1	1.2e-08	-2.1%	2%[11.4 µM]
71	C=C(C)C(C)(C#CCN1CCCC1)OC(C)=O (stereo not drawn)	1e-09	1.9%	10%
72	N#CCSc1nc2ccccc2c(=O)n1CCC(=O)NC1CCCCC1	1.2e-08	-1.7%	1%

entry	Resorufin autofl	A488 autofl
65	i	i
66	i	i
67	i	i
68	i	i
69	.	.
70	i	i
71	i	i
72	i	i

The listing continues:
entry	Molecule	A647 autofl	AID923	TSHR ag
73	Cc1c(Br)cc(C(=O)N2CCN(CCO)CC2)c(C)c1C	5.1e-09	-1.4%	9%
74	CCOc1ccc(NC(=O)Nc2cc(C)ccc2OC)cc1	9.4e-09	-0.7%	-11%
75	COc1ccccc1CNC(=O)c1cc2c(=O)n(C)c3ccccc3c2n1C	.	-0.2%	?
76	CC(C)(C)SCCNC(=O)COc1ccccc1	.	-2.1%	0%[11.4 µM]

entry	Resorufin autofl	A488 autofl
73	i	i
74	i	i
75	.	.
76	.	.

Screening results (PubChem)
